# Rango release inh = prevents RanGTP from dissociating the Rango-importin beta complex; Biochemical FRET Rango-importin beta, RanGTP-induced dissociation; Potency, µM (top dose mostly 46.1 µM), for inactives: top-dose activity change, negative = inhibition; 340,000 compounds, 0.071% hits; AID 540253; active means falling FRET ratio curve, often poorly fitted, with flat reads before Ran was added; inconclusive means other falling curves, or compound fluorescence or quenching; inactive means flat or rising ratio curve;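 further: potency means the concentration at half of the fitted maximal effect; % of control where 0% means no effect; nearly all actives have a fitted effect of over 45% in size; -100% = wells without RanGTP and RCC1; the record marks most hits as doubtful in a second field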
#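 Quantitative HTS using a FRET biosensor: 0.1 uM Rango, 0.25 uM importin beta, 0.6 uM Ran, 2 mM GTP, 0.2 uM RCC1 final, PBS with DTT, Tween-20 and BSA. Post-read taken 45 min after Ran addition.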
# GLA inh pH 4.5 = alpha-galactosidase A (human) inhibition, pH 4.5; activity change, negative = inhibition, % at 105 µM; 230,000 tested, under 10 active; P06280; AID 1467; purified enzyme, 4-MU-alpha-Gal fluorescence, pH 4.5; inconclusive = small, poorly fitted or top-dose-only inhibition, or a rising curve; inactive = flat fitted curve, though single readings scatter; no compound was filed as active;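 further: 0% = full activity with enzyme and -100% = basal without enzyme; dose as in the result columns while the protocol names 77 µM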
# Target sequence (P06280 whole entry, looked up): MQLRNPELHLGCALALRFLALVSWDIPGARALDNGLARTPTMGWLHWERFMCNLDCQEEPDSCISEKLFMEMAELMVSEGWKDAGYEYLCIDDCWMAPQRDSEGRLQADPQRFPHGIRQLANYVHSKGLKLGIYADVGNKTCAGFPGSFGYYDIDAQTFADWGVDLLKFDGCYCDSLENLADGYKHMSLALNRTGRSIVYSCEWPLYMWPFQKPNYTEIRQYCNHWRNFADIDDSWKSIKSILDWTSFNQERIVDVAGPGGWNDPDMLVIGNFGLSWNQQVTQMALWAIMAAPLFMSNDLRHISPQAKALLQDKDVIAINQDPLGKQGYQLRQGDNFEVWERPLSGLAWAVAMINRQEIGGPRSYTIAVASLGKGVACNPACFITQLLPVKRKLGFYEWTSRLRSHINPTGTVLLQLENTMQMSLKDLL
# miR-21 FLuc = raises the signal of a miR-21 reporter; HeLa miR-21 FLuc reporter, luciferase, 48 h; Potency, µM (doses to about 38.3 µM), inactives show top-dose reporter change, positive = more light; 340,000 tested, under 10 active; active = well fitted rising curve with a large enough effect; inconclusive = small, poorly fitted or top-dose-only effect; inactive = no such curve, though single readings can be large or run the other way;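 further: % of control where 0% means no effect; miR-21 action dims this reporter so a rising signal means less miR-21 action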
#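 Using DMEM plus 10% FBS, HeLa miR-21-FLuc cells are incubated with test compounds (final up to about 40uM) for 48 hours; firefly luciferase signal is then imaged following reagent-mediated lysis.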
# Rango complex inh = prevents formation of the Rango-importin beta complex; Q14974; Rango CFP/YFP FRET sensor + importin beta, 45 min; Potency, µM (titrated, usually from 92.2 µM), without a hit: at the top dose inhibition of complex formation; 340,000 compounds, 0.031% hits; active = rising FRET ratio curve, often small or poorly fitted; inconclusive = mostly compound fluorescence or quenching in the first reads; inactive = flat curves in all reads;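 further: potency means the concentration at half of the fitted maximal effect; 0% = DMSO wells and 100% = buffer wells lacking importin beta; nearly all actives have a fitted effect of over 15% in size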
#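 FRET biosensor Rango (snurportin 1 IBB between N-terminal EYFP and C-terminal Cerulean), 50 nM in PBS/1 mM DTT/0.02% Tween-20/0.1% BSA, preincubated 5 min RT with compound; 0.125 microM importin beta added, 45 min RT, CFP/YFP FRET ratio read.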
# Numbers without * were called inactive; ? = inconclusive; . = not tested or not shown; & = joins results of further samples.
# Start of the data: the first 2 records as a preview:
Rango complex inh | miR-21 FLuc | Rango release inh | GLA inh pH 4.5 | canonical_smiles
2.3% | -26% | 9% | -17 | CCOC(=O)NC(=O)/C(C=Nc1ccc(Cl)c(Cl)c1Cl)=C(\C)O
0.8% | -2% | -6% | 1 | CCOC(=O)N1CCN(CC(=O)Nc2cc(OCC)ccc2OCC)CC1

# All compounds of this part, from the start:
Rango complex inh | miR-21 FLuc | Rango release inh | GLA inh pH 4.5 | canonical_smiles
2.3% | -26% | 9% | -17 | CCOC(=O)NC(=O)/C(C=Nc1ccc(Cl)c(Cl)c1Cl)=C(\C)O
0.8% | -2% | -6% | 1 | CCOC(=O)N1CCN(CC(=O)Nc2cc(OCC)ccc2OCC)CC1
3.8% | -46% | 6% | . | COc1ccc(/C=N/N2CCN(c3ccccc3OC)CC2)cc1Br
-0.1% | -43% | 4% | -9 | Fc1ccc(C2=NNC(=NCc3ccccc3)SC2)cc1F
0.4% | . | 0% | . | C=CC[C@@H](CC(=O)NCCO)C(=O)N[C@@H](COC(=O)[C@@H](CC=C)CC(=O)OC(C)(C)C)Cc1ccccc1
0.5% | -1% | 0% | 5 | O=C(NC1CCCCC1)C(c1ccccn1)N(C(=O)c1csnn1)C1CCCCC1 (configuration not stated)
-6.6% | 18% | 14% | -5 | O=C(NC(NC(=S)N1CCOCC1)C(Cl)(Cl)Cl)c1ccc(Cl)cc1 (configuration not stated)
-0.3% | -5% | -3% | -10 | CSc1nnc(-c2cccc(NC(=O)c3ccccc3)c2)n1C
7.0% | -61% | -13% | 3 | O=[N+]([O-])c1ccccc1N/N=C\c1ccccc1Cl
0.4% | . | -14% | . | CC(=O)Nc1ccc(NC(=O)C(C)OC(=O)c2cccc(S(=O)(=O)N3CCCCCC3)c2)cc1 (configuration not stated)

# Filtered by structure, those above with nitrogen in an aromatic ring (2)
Rango complex inh | miR-21 FLuc | Rango release inh | GLA inh pH 4.5 | canonical_smiles
0.5% | -1% | 0% | 5 | O=C(NC1CCCCC1)C(c1ccccn1)N(C(=O)c1csnn1)C1CCCCC1 (configuration not stated)
-0.3% | -5% | -3% | -10 | CSc1nnc(-c2cccc(NC(=O)c3ccccc3)c2)n1C

# The listing continues.
Rango complex inh | miR-21 FLuc | Rango release inh | GLA inh pH 4.5 | canonical_smiles
1.4% | -4% | -8% | 3 | O=C(COC(=O)c1cncc(Br)c1)Nc1ccc2c(c1)OCO2
0.7% | 30% | -5% | 1 | c1ccc(-c2nnc(-c3ccccn3)c(-c3ccccn3)n2)nc1
2.5% | -2% | -8% | -1 | CC(C)(C)OC(=O)N1CCC[C@H]1C(=O)N/N=C/c1cccc2cccnc12
2.1% | 1% | -17% | 7 | Cc1nc(-c2ccccc2)cn(O)c1=O
3.5% | -7% | 8% | -5 | Cc1ccc(-n2c3c(c(=O)[nH]c2=O)C(C(F)(F)F)(C(F)(F)F)NC(=O)N3)cc1
-4.7% | -4% | -6% | -8 | COCCSc1ccccc1C(=O)Nc1cccnc1
-1.2% | -8% | 0% | -1 | COc1ccccc1N1CCN(CCCNC(=O)Nc2ccccc2C)CC1
1.7% | -20% | 5% | . | O=C(Nc1ccc(Cl)cc1)c1ccc2snnc2c1
? | -6% | ? | -10 | COc1ccc(-n2c(O)c(/C=N/NS(=O)(=O)c3ccc(C)cc3)c3ccccc3c2=O)cc1OC
0.5% | -3% | 8% | -3 | O=C(NCc1ccncc1)C(F)(F)C(F)(F)C(=O)NCc1ccncc1
1.0% | . | 9% | . | CC(=O)Nc1ccc(NC(=O)CCN2C(=O)C3CC=CCC3C2=O)cc1 (configuration not stated)
-1.4% | 2% | -3% | . | Cc1ccc(C2=NS(=O)(=O)N(C)C(C(=O)Nc3ccc(F)cc3F)=C2)cc1
-1.0% | 7% | 10% | . | COC(=O)c1sc(N)c(C(=O)OC)c1Cn1ncc(Cl)c(Cl)c1=O
0.0% | . | 12% | . | CCN(CC(=O)Nc1ccc(NC(C)=O)cc1)C(=O)c1cn(-c2ccccc2)nc1-c1cccs1
. | -24% | . | -20 | Cc1cc(C)cc(NC(=O)Cn2c(SCc3cc(C)ccc3C)nc3ccncc32)c1
-1.8% | 2% | -13% | . | C=CCNc1nc2ccccc2nc1NS(=O)(=O)c1ccc(F)cc1
2.2% | -3% | 0% | -1 | CCc1nnc(NC(=O)C2CCCN(c3nc4ccccc4s3)C2)s1 (configuration not stated)
-0.2% | -2% | -2% | . | CC(C)c1ccc(OCC(O)CN2CCCC2)cc1 (configuration not stated)
6.9% | -20% | 31% | -5 | Cc1ccn2c(C(=O)CSc3ccccc3)c(C)nc2c1
1.5% | -7% | 3% | -8 | CCC(=O)Nc1cccc(NC(=O)c2ccccc2Br)c1
-3.0% | 0% | ? | . | COc1cc(/C=N/NC(=O)c2c(-c3c(Cl)cccc3Cl)noc2C)ccc1OCC(N)=O
2.1% | 5% | 6% | . | CC(C)OCCCNC(=O)C1CCN(S(=O)(=O)c2ccc3nc4c(c(C(=O)O)c3c2)CCCCC4)CC1
-1.1% | -5% | -4% | 5 | CN1CCN(C(=S)c2ccc(Br)cc2)CC1
4.5% | -20% | 6% | 4 | Cc1ccc(NC(=O)CN(C)Cc2cc(=O)n3ccsc3n2)cc1
2.6% | -4% | -24% | 11 | Cc1cc(=O)[nH]c(SCC(=O)NCCC2=CCCCC2)n1
-1.7% | -1% | 2% | 6 | O=C(c1cccc(F)c1)N1CCCC(C(=O)N2CCCC2)C1 (configuration not stated)
3.5% | 22% | 18% | . | O=C(CCS(=O)(=O)c1ccc(Cl)cc1)Nc1nc(-c2ccncc2)cs1
3.7% | . | 21% | . | Cc1cc(=O)[nH]c(SCC(=O)N2CC3(C)CC2CC(C)(C)C3)n1 (configuration not stated)
-1.0% | -39% | 9% | 6 | COc1cccc(/C=N/NC(=S)Nc2cccnc2)c1
-3.2% | -2% | 1% | . | COc1cc(/C=C2/C(=O)NN(c3ccc(Cl)c(Cl)c3)C2=O)cc([N+](=O)[O-])c1O
-0.2% | 26% | -12% | 6 | COc1ccc(C(=O)Nn2c(SCC(=O)NCc3ccco3)nc3ccccc3c2=O)cc1
? | ? | 19% | -11 | O=C(N/N=C\c1ccc([N+](=O)[O-])s1)c1cncc(Br)c1
-2.1% | . | 15% | . | CCc1ccc(NC(=O)C(C)Sc2ccc(S(=O)(=O)N3CCN(C)CC3)cn2)cc1 (configuration not stated)
0.2% | -2% | 6% | -4 | O=C(CCCN1C(=O)/C(=C\c2cccs2)SC1=S)Nc1ccc(C(=O)O)cc1
-0.7% | . | -1% | . | CS(=O)(=O)c1nc([N+](=O)[O-])nn1CCCc1ccccc1
-0.2% | -38% | -6% | 2 | N#CCSc1nc(-c2ccccc2)cs1
-2.9% | 1% | -15% | . | Cc1ccc(C)c(NS(=O)(=O)c2ccc3oc(=O)ccc3c2)c1
-1.2% | -2% | -15% | 4 | C(=N\N(c1ccccc1)c1ccccc1)/c1ccc2c(c1)OCO2
-3.4% | . | 37% | . | Cc1c(NC(=O)C(C)Oc2cccc(F)c2)c(=O)n(-c2ccccc2)n1C (configuration not stated)
5.2% | 2% | 9% | . | COC(=O)N1C(=O)[C@](CC(C)C)(c2ccccc2)N1C(=O)OC
-2.8% | . | -3% | . | O=S(=O)(NCCCCNS(=O)(=O)c1c(F)cccc1F)c1ccc2c(c1)OCCO2
2.4% | . | 0% | . | COc1ccc(OC)c2sc(N3CCN(C(=O)c4ccc5ncsc5c4)CC3)nc12
0.6% | -19% | 10% | . | Cc1ccc(N2C(=O)N(CC(=O)Nc3ccccc3C)C(=O)C2C)cc1 (configuration not stated)
-0.5% | -10% | -27% | -20 | COc1ccc(OC)c2c(N3CCN(C)CC3)cc(C(F)(F)F)nc12
1.7% | 2%&0% | 5% | . | Cc1c(NC(=O)c2cc(-c3ccc(Cl)c(Cl)c3)on2)c(=O)n(-c2ccccc2)n1C
1.3% | -12% | -5% | -10 | Cc1nn(CC(=O)NCc2ccccc2Cl)c(C)c1[N+](=O)[O-]
0.3% | . | -12% | . | O=C(C1CCCO1)N1CCN(S(=O)(=O)c2cc(C(F)(F)F)ccc2Cl)CC1 (configuration not stated)
0.3% | -10% | 7% | -20 | Cc1cc(F)ccc1NCC(=O)Nc1ccc(Br)cc1C
0.5% | 4% | -20% | 16 | COc1ccccc1N1CCN(C(=O)COc2ccc(S(=O)(=O)NC(C)C)cc2)CC1
? | . | -11% | . | CCOc1ccc(C2C(C(=O)NC)=C(C)Nc3nc4ccccc4n32)cc1OC (configuration not stated)

# Later entries
Rango complex inh | miR-21 FLuc | Rango release inh | GLA inh pH 4.5 | canonical_smiles
-4.8% | 30% | -5% | 0 | Cc1cccc(C(=O)Nc2scc(CC(C)C)c2C(=O)O)c1
2.8% | -42% | 1% | -5 | CCc1ccc(N=C2N=C(N)c3ccccc32)cc1
0.4% | -4% | -5% | 8 | Cc1noc(C)c1C(=O)NCCCN1CCCC1=O
-1.0% | -2% | -6% | 7 | CCN(Cc1cc2cc(OC)ccc2[nH]c1=O)C(=O)c1ccncc1
-0.4% | 2% | 0% | 4 | COc1cc(/C=N/n2c(=S)[nH]nc(C)c2=O)cc([N+](=O)[O-])c1O
-3.3% | 2% | -12% | . | NC(=O)c1cc(S(=O)(=O)N2CCCC2)ccc1OCc1ccc(F)cc1
-0.9% | -8% | 3% | 1 | CC(=O)N1CCC(N(CCN2CCOCC2)C(=S)Nc2ccccc2C)CC1
4.2% | 4% | 16% | . | CC(C)(C)OC(=O)[C@H](Cc1ccccc1)NC(=O)c1nc[nH]c1C(=O)NCC(=O)OCc1ccccc1
0.4% | 2% | -19% | -10 | N#Cc1c(Cl)nc2c(c1C#N)CCCC2
0.2% | . | -13% | . | CC(C)CN(C(=O)c1ccc(Br)o1)C1CCS(=O)(=O)C1 (configuration not stated)
11% | 1% | -18% | 2 | N#C/C(C(N)=O)=C1/SC=C(c2ccccc2)N1c1ccccc1
-2.8% | -1% | -1% | 11 | O=C(c1ccccc1F)N1C(=O)c2cccc3cccc1c23
7.5% | -2% | -2% | 11 | Cc1cc(NC(=O)CSc2ncn[nH]2)no1
0.6% | -6%&-15% | 24% | . | CCCCC(=O)Nc1nnc(S(=O)(=O)N2CCCCCC2)s1
-4.4% | 8% | 3% | -10 | CCCn1c(/N=C/c2c[nH]c3ccccc23)nc2ccccc21
2.7% | 2% | -1% | -23 | C=CCC(C(=O)OC)(C(=O)OC)c1ccc([N+](=O)[O-])cn1
-1.3% | -34% | 19% | 5 | Cc1cccc(-c2cc3c(nn2)-c2ccccc2C3=O)c1
0.3% | -23% | 37% | -9 | COc1cc(NC(=O)/C=C/c2ccccc2)c(C(=O)O)cc1OC
-2.9% | -44% | 28% | 3 | CCSc1nc(N)c2c3c(sc2n1)CCC3
-0.4% | 0% | -5% | . | Cc1c(C(=O)O)sc2[nH]c(=O)n(Cc3ccccc3)c(=O)c12
3.8% | 14% | -6% | 11 | CCOc1cc(/C=N/NC(=O)NN(C)c2ncc(C(F)(F)F)cc2Cl)ccc1O
-1.7% | -4% | -9% | . | COCCN(C(=O)CCC(=O)Nc1cc(C)on1)C(C(=O)NC(C)(C)C)c1cccc(OC)c1OC (configuration not stated)
3.9% | . | 8% | . | CN(Cc1cnn(Cc2ccccc2)c1)C(=O)CN=C1NS(=O)(=O)c2ccccc21
0.6% | . | 7% | . | O=C(Cc1cccc(NC(=O)C2CCCN(C(=O)C3CC3)C2)c1)Nc1cccc(C(=O)N2CCCCC2)c1 (configuration not stated)
4.9% | . | -5% | . | O=C(CSc1nc(=O)n2cc(Cl)ccc2n1)Nc1ccc2c(c1)OCO2
4.5% | ? | -9% | -2 | O=C(/C=C/c1ccc(Cl)cc1)c1cccnc1
-1.7% | -11% | -1% | -2 | CC(SCc1ccccc1)C(=O)Nc1ccc(F)cc1 (configuration not stated)

# Compound profiles, from the list above. Order of screens: Rango complex inh	miR-21 FLuc	Rango release inh	GLA inh pH 4.5
# O=C(/C=C/c1ccc(Cl)cc1)c1cccnc1 in the list: 4.5%	?	-9%	-2
# CC(SCc1ccccc1)C(=O)Nc1ccc(F)cc1 (configuration not stated) in the list: -1.7%	-11%	-1%	-2

# Screening data deposited in PubChem BioAssay by National Center for Advancing Translational Sciences (NCATS).

# This is a subset; the hit share may differ from the screen's.
